AF4-AF9 inh: blocks AF4 peptide binding to human AF9; P42568; AlphaScreen, biotin-AF4 peptide binding to FLAG-AF9; inhibition, % at 10 µM; 0.47% of 350,000 active; AID 651704;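 active = every replicate reaching a set inhibition limit, whatever the replicate mean, cut at about 25% in these data; inconclusive = mean inhibition reaches that limit but some replicates miss it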;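 also: 0% = plate neutral control median and 100% = total signal loss; the record names both 10 and 1 µM as test concentration; the first replicate is given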
Target sequence (P42568 whole entry, looked up): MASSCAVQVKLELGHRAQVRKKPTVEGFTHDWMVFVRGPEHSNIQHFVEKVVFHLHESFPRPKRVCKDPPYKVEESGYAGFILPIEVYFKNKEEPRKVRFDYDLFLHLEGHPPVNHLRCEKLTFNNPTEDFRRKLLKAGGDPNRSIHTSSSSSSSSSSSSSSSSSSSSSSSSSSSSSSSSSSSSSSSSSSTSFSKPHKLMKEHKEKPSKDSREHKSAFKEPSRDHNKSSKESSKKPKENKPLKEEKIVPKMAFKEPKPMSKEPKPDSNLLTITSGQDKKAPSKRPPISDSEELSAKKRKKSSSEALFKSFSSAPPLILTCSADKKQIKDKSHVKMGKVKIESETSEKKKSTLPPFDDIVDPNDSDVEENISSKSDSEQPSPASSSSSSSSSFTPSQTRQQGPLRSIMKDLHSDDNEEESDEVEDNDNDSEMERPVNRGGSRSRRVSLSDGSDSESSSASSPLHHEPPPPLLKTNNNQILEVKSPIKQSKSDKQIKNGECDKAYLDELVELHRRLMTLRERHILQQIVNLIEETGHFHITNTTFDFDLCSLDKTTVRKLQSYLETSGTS
An asterisk follows results filed as active; ? = inconclusive; & = joins results of further samples.

| AF4-AF9 inh | Structure |
| --- | --- |
| -1.1 | OCC[C@@H]1C[C@H](O)[C@@H](O)[C@]2(OCc3ccc(CO)cc32)O1 |
| 0.7 | CN1CCC(N2CCN(C3CN(Cc4cn(Cc5ccc(C(F)(F)F)cc5)nn4)S(=O)(=O)C3)CC2)CC1 (centres undefined) |
| -2.4 | N#C[C@@H]1[C@@H](c2ccccc2)[C@H](CO)N1C(=O)c1cccnc1 |
| 1.0 | C[C@@H]1CN([C@H](C)CO)C(=O)c2cc(C#CC3CCCCC3)cnc2O[C@H]1CN(C)C(=O)c1ccncc1 |
| -1.7 | O=C(C1CCCCC1)N1CC(=O)N2[C@H](CO)[C@H](c3ccc(-c4cccnc4)cc3)[C@@H]2C1 |
| -1.9&0.1 | COc1ccc(CNC(=O)C[C@@H]2CC[C@@H](NS(=O)(=O)c3cccc(OC)c3)[C@@H](CO)O2)cc1 |
| -4.1 | C[C@@H]1CN([C@@H](C)CO)C(=O)c2c(c3ccccc3n2C)-c2ccccc2CO[C@H]1CN(C)S(=O)(=O)c1cccc(F)c1 |
| -1.8 | CC(C)NC(=O)N(C)C[C@H]1Oc2cc(C#C[C@@H](C)O)ccc2S(=O)(=O)N([C@@H](C)CO)C[C@H]1C |
| 2.1 | C[C@@H]1CN([C@H](C)CO)C(=O)c2cccc(NS(=O)(=O)c3ccc(Cl)cc3)c2O[C@@H]1CN(C)S(=O)(=O)c1cccs1 |
| -13 | C[C@H](CO)N1C[C@H](C)[C@H](CN(C)Cc2ccc(C(F)(F)F)cc2)OCc2ccccc2-c2c(n(C)c3ccccc23)C1=O |
| -1.2 | Cc1noc(C)c1NC(=O)Nc1ccc2c(c1)C(=O)N([C@H](C)CO)C[C@H](C)[C@H](CN(C)CC1CC1)O2 |
| -0.7 | O=C(Nc1ccc(F)cc1)N1C[C@@H]2[C@H](c3ccccc31)[C@H](CO)N2C(=O)c1ccc(F)cc1 |
| -5.0 | C[C@@H]1CN([C@@H](C)CO)C(=O)c2cc(NS(=O)(=O)c3cccs3)ccc2O[C@H]1CN(C)CC1CCCCC1 |
| -1.1 | C[C@@H]1CN([C@@H](C)CO)C(=O)c2cccc(NC(=O)c3ccc(-c4nccs4)cc3)c2O[C@H]1CN(C)CC1CCCCC1 |
| -10 | N#Cc1ccc(-c2ccc([C@H]3[C@@H](CO)N4C(=O)CN(C(=O)C5CCCC5)C[C@@H]34)cc2)cc1 |
| ? | CN(C)CCN(C(=O)c1ccc2ccccc2c1)c1nc2cc3c(cc2s1)OCO3 |
| -1.8 | O=C(NCc1ccccc1)[C@H]1CCCN1C(=O)[C@H]1CCCN1C(=O)c1cccs1 |
| -24 | O=C1C(=O)c2cccnc2-c2ncccc21 |
| -9.0 | COC(=O)[C@]12C[C@H](CC(=O)NCCCN3CCCC3=O)C(=O)N(Cc3ccc4c(c3)OCO4)C1=C[C@H](C(C)(C)C)O[C@@H]2C |
| -2.2 | C[C@@H]1CN([C@@H](C)CO)C(=O)c2cc(C#Cc3ccccc3F)cnc2O[C@@H]1CN(C)C(=O)C1CCOCC1 |
| -5.2 | C[C@@H]1CN([C@H](C)CO)C(=O)c2cc(C#CC3(O)CCCC3)cnc2O[C@@H]1CN(C)S(=O)(=O)c1ccc(F)cc1 |
| 0.2 | CS(=O)(=O)Nc1cccc(-c2cc(NC=O)c3ncc(-c4ccc(F)c(Cl)c4)n3c2)c1 |
| 2.7 | C[C@@H]1CN([C@@H](C)CO)C(=O)c2cc(NS(=O)(=O)c3ccc(Cl)cc3)ccc2O[C@H]1CN(C)Cc1ccc2c(c1)OCO2 |
| 0.1 | CC(C)NC(=O)NCC[C@@H]1CC[C@@H](NC(=O)c2ccc(F)cc2)[C@@H](CO)O1 |
| -2.7 | O=C(C1CCOCC1)N1C[C@H]2[C@@H](c3ccccc31)[C@@H](CO)N2Cc1ccccc1F |
| -0.3 | O=C1CNC[C@@H]2[C@H](c3ccc(C4=CCCC4)cc3)[C@H](CO)N12 |
| -4.3 | O=C(CN1CCOCC1)N1CCCCN2[C@H](C1)[C@@H](c1ccc(Br)cc1)[C@@H]2CO |
| -0.5 | COc1cccc(S(=O)(=O)N[C@@H]2C=C[C@H](CC(=O)NC3Cc4ccccc4C3)O[C@H]2CO)c1 |
| -2.5 | COc1ccc(S(=O)(=O)N(C)C[C@H]2OCCCC[C@H](C)Oc3ccc(NS(=O)(=O)c4cn(C)cn4)cc3C(=O)N([C@@H](C)CO)C[C@H]2C)cc1 |
| 2.0 | COCC(=O)Nc1ccc2c(c1)C(=O)N(C)C[C@@H](OC)[C@H](C)CN(CCC(F)(F)F)[C@H](C)CO2 |
| 0.3 | CCCC(=O)Nc1ccc2c(c1)C(=O)N(C)[C@@H]1CC[C@@H](CC(=O)Nc3ccccc3)O[C@@H]1CO2 |
| -0.5 | O=C(C[C@@H]1CC[C@H]2[C@@H](COC[C@H](O)CN2CCC(F)(F)F)O1)NCc1ccc2c(c1)OCO2 |
| -1.1 | O=C(NC[C@H]1CC[C@@H]2[C@@H](CN2C(=O)C2CCOCC2)O1)c1cccnc1 |
| -0.9 | Cn1cnc(S(=O)(=O)N[C@H]2C=C[C@H](CC(=O)N3CCN(c4ccccc4)CC3)O[C@H]2CO)c1 |
| -1.9 | C[C@@H]1CN([C@@H](C)CO)C(=O)c2cccc(NS(C)(=O)=O)c2O[C@H]1CN(C)C(=O)Nc1ccc(C(F)(F)F)cc1 |
| -2.2 | CN(C)C(=O)C[C@H]1C[C@@H]2c3cc(NC(=O)CC4CC4)ccc3O[C@@H]2[C@@H](CO)O1 |
| -3.6 | O=C(C[C@H]1CC[C@H]2[C@@H](COC[C@@H](O)CN2Cc2ccccc2)O1)N1CCOCC1 |
| 0.3 | C[C@H]1CN([C@@H](C)CO)C(=O)Cc2cc(NS(C)(=O)=O)ccc2O[C@H]1CN(C)S(=O)(=O)c1ccc(Cl)cc1 |
| 3.0 | CO[C@@H]1CN(C)C(=O)c2ccc(NC(=O)Nc3ccccc3F)cc2OC[C@@H](C)N(C(=O)Nc2ccccc2F)C[C@H]1C |
| 2.1 | COc1ccccc1S(=O)(=O)N[C@@H]1CC[C@H](CCNC(=O)C2CCOCC2)O[C@H]1CO |

Filtered by structure, the entries above containing an aryl methoxy group
| AF4-AF9 inh | Structure |
| --- | --- |
| -1.9&0.1 | COc1ccc(CNC(=O)C[C@@H]2CC[C@@H](NS(=O)(=O)c3cccc(OC)c3)[C@@H](CO)O2)cc1 |
| -0.5 | COc1cccc(S(=O)(=O)N[C@@H]2C=C[C@H](CC(=O)NC3Cc4ccccc4C3)O[C@H]2CO)c1 |
| -2.5 | COc1ccc(S(=O)(=O)N(C)C[C@H]2OCCCC[C@H](C)Oc3ccc(NS(=O)(=O)c4cn(C)cn4)cc3C(=O)N([C@@H](C)CO)C[C@H]2C)cc1 |
| 2.1 | COc1ccccc1S(=O)(=O)N[C@@H]1CC[C@H](CCNC(=O)C2CCOCC2)O[C@H]1CO |

Other results.
| AF4-AF9 inh | Structure |
| --- | --- |
| 1.7 | CO[C@@H]1CN(C)C(=O)c2cc(NC(C)=O)ccc2OC[C@H](C)N(C(=O)C2CCCCC2)C[C@@H]1C |
| -2.7 | CC(=O)Nc1ccc(NC(=O)C2Cc3c(-c4ccc5c(c4)OCO5)ccnc3O2)cc1 (centres undefined) |
| -1.7 | Cc1noc(C)c1NC(=O)N(C)C[C@H]1Oc2c(NS(=O)(=O)c3ccc(F)cc3)cccc2C(=O)N([C@@H](C)CO)C[C@H]1C |
| 2.4 | CCS(=O)(=O)Nc1ccc2c(c1)C(=O)N(C)C[C@@H](OC)[C@@H](C)CN(C(=O)COC)[C@H](C)CO2 |
| 1.9 | O=C(Nc1ccc(F)c(Cl)c1)Nc1nnc([C@H]2C[C@H](O)[C@@H](CO)O2)s1 |
| 2.3&0.0 | C[C@H](CO)N1C[C@H](C)[C@H](CN(C)C(=O)Nc2cccc(F)c2)Oc2cc(Br)ccc2S1(=O)=O |
| -1.1 | COC(=O)c1cc2c(c3c4cc(C)ccc4n(S(=O)(=O)c4ccc(OC)cc4)c13)C(=O)N(Cc1ccccc1OC)C2 |
| 0.3 | C[C@H]1CN([C@@H](C)CO)C(=O)Cc2cc(NC(=O)Nc3cccc4ccccc34)ccc2O[C@H]1CN(C)S(=O)(=O)c1cn(C)cn1 |
| -0.7 | COc1cccc(-c2ccc([C@H]3[C@@H](CO)N4C(=O)CN(C(=O)c5ccncc5)C[C@H]34)cc2)c1 |
| 0.3 | COc1ccc(S(=O)(=O)N(C)C[C@H]2Oc3ccc(NC(=O)Cn4cnnn4)cc3CC(=O)N([C@@H](C)CO)C[C@@H]2C)cc1 |
| 1.7 | CS(=O)(=O)Nc1ccc2c(c1)[C@@H]1C[C@@H](CC(=O)NCCN3CCCCC3)O[C@@H](CO)[C@@H]1O2 |
| 3.1 | CCc1nc2ccc(C(=O)NCCCn3ccnc3)cn2c1N(C)Cc1ccc(OC)cc1 |
| -3.0 | O=C(Cc1ccccn1)N1CC2(C1)[C@H](c1ccccc1)[C@@H](CO)N2C(=O)c1ccncc1 |
| 0.9 | Cc1onc(-c2ccccc2)c1C(=O)OCC(=O)N1CCCCC1 |
| 3.8 | CN(C)CCNC(=O)C1Cc2c(-c3ccccc3Oc3ccccc3)ccnc2O1 (centres undefined) |
| -0.9 | Cc1ccc(C(=O)Nc2nc(-c3ccc4c(c3)OCCO4)cs2)o1 |

3 entries from above, field by field.
SMILES: O=C(C1CCCCC1)N1CC(=O)N2[C@H](CO)[C@H](c3ccc(-c4cccnc4)cc3)[C@@H]2C1
- AF4-AF9 inh: -1.7

SMILES: O=C(Cc1ccccn1)N1CC2(C1)[C@H](c1ccccc1)[C@@H](CO)N2C(=O)c1ccncc1
- AF4-AF9 inh: -3.0

SMILES: CO[C@@H]1CN(C)C(=O)c2ccc(NC(=O)Nc3ccccc3F)cc2OC[C@@H](C)N(C(=O)Nc2ccccc2F)C[C@H]1C
- AF4-AF9 inh: 3.0

Further entries
| AF4-AF9 inh | Structure |
| --- | --- |
| 2.2 | O=C(NCCCN1CCOCC1)[C@@H]1[C@@H](CO)[C@@H]2Cn3c(cccc3=O)[C@H]1N2C(=O)NC1CCCC1 |
| 0.5 | CC(C)CC#Cc1ccc2c(c1)O[C@H](CN(C)C(=O)c1ccccc1F)[C@@H](C)CN([C@@H](C)CO)S2(=O)=O |
| 5.2 | C[C@@H]1CN([C@@H](C)CO)C(=O)c2cccc(NS(=O)(=O)c3ccccc3)c2O[C@@H]1CN(C)C(=O)Nc1ccc2c(c1)OCO2 |
| 4.2 | CCOC(=O)c1c(-c2ccc(OC)cc2)oc2c1C(OC(C)=O)CCC2 (centres undefined) |
| -4.9 | COc1ccc2c3c(n(C)c2c1)[C@H](CO)N(C)CC31CCN(C(=O)Nc2cccc(F)c2)CC1 |
| -2.9 | COc1ccc(CN(C)C[C@H]2OCCCC[C@H](C)Oc3ccc(NC(=O)NC(C)C)cc3C(=O)N([C@H](C)CO)C[C@@H]2C)cc1 |
| -0.4 | CCc1nc2c(OCc3ccc(F)cc3)cccn2c1N(C)C(=O)COc1ccccc1 |
| -2.1 | O=C(C[C@H]1C[C@H]2c3cc(NS(=O)(=O)c4ccc(F)cc4)ccc3O[C@H]2[C@@H](CO)O1)NCc1ccc(-c2ccccc2)cc1 |
| -4.5 | COCC(=O)N1C[C@@H](C)[C@H](OC)CN(C)C(=O)c2cc(NC(=O)NC(C)C)ccc2OC[C@H]1C |
| 2.3 | COc1ccc(S(=O)(=O)N(C)C[C@@H]2Oc3ccc(NC(=O)Cc4cn(C)c5ccccc45)cc3CC(=O)N([C@@H](C)CO)C[C@H]2C)cc1 |
| 1.7 | O=C(C[C@H]1C=C[C@H](NS(=O)(=O)c2ccc(F)cc2)[C@@H](CO)O1)N1CCC(Cc2ccccc2)CC1 |
| -0.2 | CCOC(=O)N(C)C[C@@H]1OCc2ccccc2-c2ccccc2C(=O)N([C@H](C)CO)C[C@H]1C |
| 0.0 | COc1ccc(CCNC(=O)COc2cc(C)cc3oc(=O)c(C)c(C)c23)cc1OC |
| 3.9 | Cc1cc(F)ccc1C(O)c1ncc(-c2ccc3ccccc3c2)[nH]1 (centres undefined) |
| -0.5 | COc1ccccc1C#Cc1ccc([C@H]2[C@@H](C#N)N(C(=O)C3CC3)[C@@H]2CO)cc1 |
| -1.3 | CC(C)(C)[S@](=O)N1Cc2cc(C(=O)NCCc3ccncc3)nc(-c3cccc(-c4ccc(C#N)cc4)c3)c2[C@@H]1CCO |
| 0.8 | CO[C@H](CN(C)S(=O)(=O)c1ccc(C)cc1)[C@H](C)CN([C@@H](C)CO)S(=O)(=O)c1cccc(Cl)c1 |
| -1.0 | C[C@H]1CN([C@@H](C)CO)C(=O)c2cc(NC(=O)CCN3CCOCC3)ccc2O[C@@H]1CN(C)Cc1ccc(C(=O)O)cc1 |
| -2.4 | CC(=O)N(C)C[C@@H]1Oc2ncc(-c3ccc(C)cc3)cc2C(=O)N([C@H](C)CO)C[C@H]1C |
| -1.5 | O=C(Nc1nnc([C@@H]2C[C@H](O)[C@@H](CO)O2)s1)c1ccc(Oc2ccccc2)cc1 |
| 13 | CN(C)CC#Cc1ccc([C@@H]2[C@H](CO)N3CCCCN(C(=O)c4ccc5c(c4)OCO5)C[C@@H]23)cc1 |
| -3.5 | C[C@H]1CN([C@@H](C)CO)C(=O)c2cc(C3=CCCCC3)cnc2O[C@H]1CN(C)C(=O)Cc1ccccc1 |
| -6.4 | CC(C)(C)Cc1c(C2CCCCC2)nc2ccc(Cl)cn12 |
| 2.0 | CCCC(=O)Nc1ccc2c(c1)C(=O)N(C)C[C@H](OC)[C@H](C)CN(Cc1ccccc1)[C@@H](C)CO2 |
| 4.8 | CC(C)NC(=O)Nc1ccc2c(c1)C(=O)N([C@H](C)CO)C[C@H](C)[C@@H](CN(C)Cc1ccc(Cl)c(Cl)c1)OCCCC[C@H](C)O2 |
| 33* | COc1ccc2c3c(n(C)c2c1)[C@@H](CO)N(Cc1ccccc1F)CC31CCN(CC2CC2)CC1 |
| 0.1 | CO[C@@H]1CN(C)C(=O)c2ccc(NC(=O)C3CCOCC3)cc2OC[C@H](C)N(Cc2cccnc2)C[C@@H]1C |
| -0.2 | Cc1ccc(S(=O)(=O)N(C)C[C@H]2OCCCC[C@H](C)Oc3ccc(NC(=O)NC(C)C)cc3C(=O)N([C@H](C)CO)C[C@@H]2C)cc1 |
| 5.9 | O=C(NCc1ccc2c(c1)OCO2)[C@@H]1[C@@H](CO)[C@@H]2Cn3c(cccc3=O)[C@H]1N2Cc1cncnc1 |

An excerpt; the hit share may differ from the screen's.
